Six1-Eya2 inh = blocks human Six1 binding to Eya2; Q15475+O00167; 0.56% of 360,000 active; AlphaScreen GST-Six1/His-Eya2 binding, biochemical; hits give low values; control for the full effect not named in the record; activity change, % (concentration not given with the values); in the data active = activity change below about -65%; inconclusive = about -30% to -65%; inactive = above about -30%; also: % is scaled to controls: 0 for no effect and ±100 for the full control effect
Target sequence (O00167 whole entry, looked up): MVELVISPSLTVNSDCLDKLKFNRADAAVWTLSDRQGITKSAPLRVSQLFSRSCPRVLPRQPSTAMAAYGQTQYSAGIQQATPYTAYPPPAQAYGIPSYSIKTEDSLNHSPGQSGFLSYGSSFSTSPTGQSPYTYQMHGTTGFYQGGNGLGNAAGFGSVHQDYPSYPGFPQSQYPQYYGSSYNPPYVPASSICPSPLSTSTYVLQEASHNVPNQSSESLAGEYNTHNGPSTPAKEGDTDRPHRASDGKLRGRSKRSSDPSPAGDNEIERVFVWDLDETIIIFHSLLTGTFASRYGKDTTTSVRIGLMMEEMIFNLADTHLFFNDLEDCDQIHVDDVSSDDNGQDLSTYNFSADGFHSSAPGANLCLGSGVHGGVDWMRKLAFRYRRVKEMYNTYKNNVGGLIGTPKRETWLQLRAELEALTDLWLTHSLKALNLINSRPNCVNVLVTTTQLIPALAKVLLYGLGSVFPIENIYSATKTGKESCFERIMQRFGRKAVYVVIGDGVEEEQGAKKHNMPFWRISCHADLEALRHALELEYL
Target sequence (Q15475 whole entry, looked up): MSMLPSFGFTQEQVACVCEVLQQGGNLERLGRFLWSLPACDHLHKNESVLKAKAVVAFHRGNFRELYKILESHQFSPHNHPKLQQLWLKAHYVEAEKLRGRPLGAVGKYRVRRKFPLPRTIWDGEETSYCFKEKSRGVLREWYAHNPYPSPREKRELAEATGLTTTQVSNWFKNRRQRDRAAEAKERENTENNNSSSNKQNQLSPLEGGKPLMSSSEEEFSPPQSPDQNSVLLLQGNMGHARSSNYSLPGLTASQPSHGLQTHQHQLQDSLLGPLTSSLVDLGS
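GST-Six1 + His-Eya2 (5X stock: 250/500 nM); Tris pH 8.0, 300 mM NaCl, 0.05% BSA, 0.02% Tween 20; GSH donor/Ni acceptor beads; 1 h 37 °C dark; AlphaScreen readout.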
D2 PAM = potentiates the human D2 dopamine receptor allosterically | P14416 | DiscoveRx D2 beta-arrestin cells, luminescence, 90 min; 100% = 57 uM dopamine signal | potentiation, % (no concentration beside the values) | 0.23% of 360,000 active | AID 624464; active = potentiation of 50% or more; inconclusive = 30% to 50%; inactive = 30% or less;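 also: compound concentration not given in the record; tested on top of an EC20 dose of dopamine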
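PathHunter D2 cells, attached overnight at 37 deg C, received compound in DMSO plus dopamine at EC20 (50 nM final) for 90 min at 37 deg C. Beta-arrestin recruitment was read as luminescence after 1 h with detection reagent at ambient temperature.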
D2 ag = activates the human D2 dopamine receptor. P14416. DiscoveRx PathHunter D2 beta-arrestin, luminescence, 90 min; 100% = 57 uM dopamine signal. activation, % (no concentration beside the values). 0.084% of 360,000 active. AID 624465; in the data active = activation above about 40%; inconclusive = about 15% to 40%; inactive = below about 15%; also: compound concentration not given in the record; the text of the record calls up to 30% inactive
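Agonist mode: compounds alone added to overnight-plated D2 PathHunter cells for 90 min at 37 C, with 57 uM final dopamine (EC100) defining full response. Beta-arrestin recruitment detected by chemiluminescent reagent, read after 1 h at ambient temperature.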
TRPML1 agonist = activates the human TRPML1 channel; 0.12% of 410,000 active; AID 624414; TRPML1-expressing cells, Ca2+ dye fluorescence, FDSS; host cell line not named in the record; reference of the full effect not given here; Q9GZU1; activation, % (concentration not given with the values); in the data active = activation above about 50%; inconclusive = about 30% to 50%; inactive = below about 30%; also: 0% is about no effect; the text of the record puts the active cut at 80%
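TRPML1-DL cells, Tet-induced overnight (~16 h, 37 degrees C), loaded 45-90 min at room temperature with Ca8 no-wash calcium dye plus quencher. FDSS fluorescence: 10 s baseline, compound pin-transfer, 110 s agonist read, then EC80 54-4 (4uM final) and 110 s antagonist read.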
CtBP-E1A blk = CtBP/E1A binding inhibition | activity change, % (concentration not given with the values) | AlphaScreen GST-E1A/His-CtBP binding, 1536-well; hits give low values; control for the full effect not named in the record | 0.49% of 340,000 active | AID 651724; in the data active means activity change below about -65%; inconclusive means about -30% to -65%; inactive means above about -30%; also: % is scaled to controls: 0 for no effect and ±100 for the full control effect
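In 5 uL wells, 23 nL compound meets equimolar GST-E1A and His-CtBP (5X stock 125 nM each) for 2 h, 37 °C. Beads (5X, 50 ug/mL) then 1 h, 37 °C, dark.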
PINK1 expr mod = PINK1 expression modulation; PINK1 immunofluorescence, high-content cytometry, 24 h; Potency, µM (highest dose often 76.6 µM), without a hit: at the highest dose activation (PINK1 increase), usual class: activators; 0.2% of 410,000 active; AID 624263; active = well fitted activation curve with a large enough effect; inconclusive = small, poorly fitted or top-dose-only effect; inactive = flat fitted curve, though single readings scatter; cell line not stated here;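 also: potency is read from the fitted curve at half-maximal effect; % of control where 0% means no effect; nearly all actives have a fitted effect of over 65% in size; a mitochondrial uncoupler was the plate control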
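Compound titrations (5 concentrations, 24 h) on a stable cell line; DMSO and CCCP controls. Endpoint: fixed-cell PINK1 immunofluorescence with mitochondrial, cell and nuclear markers, scanned by microplate cytometer.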
Numbers without * were called inactive; ? = inconclusive; · = no result given; & = joins results of further samples; [ ] = remark or other dose. Random draw from the library. Share with any hit: about 1.3%.

Value order: Six1-Eya2 inh, D2 PAM, D2 ag, TRPML1 agonist, CtBP-E1A blk, PINK1 expr mod
> CCCNC(=O)C1(C)CCCN(Cc2cccc(Oc3ccccc3)c2)C1 (configuration not stated)
 : 5, -12, -5.3, -1.2, 8, 1.8%
> C[C@H](CO)N1C[C@H](C)[C@@H](CN(C)S(=O)(=O)c2ccc(Oc3ccccc3)nc2)OCc2cnnn2CCCC1=O
 : 1, -1, -0.6, -0.2, -9, 0.7%
> O=C(/C=C/c1ccc(Cl)c(Cl)c1)NCCCn1ccnc1
 : -6, -19, 4.4, -0.5, -6, 1.1%
> C=C1c2cc(C)ccc2NC(=O)N1c1ccccc1
 : 15, -20, -11, -1.0, 1, -0.9%
> CCOc1ccc(CCNC(=O)CN2C(=O)NC3(CCCCC3)C2=O)cc1OCC
 : -1, ?, -1.0, -0.4, 5, 2.4%
> COC(=O)c1ccccc1NC(=O)CSc1n[nH]c(CC(C)C)n1
 : -6, -12, 3.3, 2.5&2.1, 5, 1.2%&1.2%
> N#Cc1c(NC(=O)COC(=O)c2ccc(F)cc2)sc2c1CCC2
 : 7, -10, 0.1, 0.0, 5, -6.2%[38.3 µM]
> CCc1ccc(-c2csc3nc[nH]c(=O)c23)cc1
 : 5, -15, -1.1, 2.3, 0, -0.1%
> Cc1ccc(NC(=O)c2ccc(OCC3CCCO3)cc2)cc1 (configuration not stated)
 : 4, -6, -0.9, 0.0, 0, 4.3%
> COc1cccc(C(C(=O)NCc2ccccc2)N(C(=O)c2csnn2)C2CC2)c1 (configuration not stated)
 : 5, -5, 2.2, -0.3, 12, 0.6%
> CCOc1ccccc1N(C)C(=O)c1cn(CC)c(=O)c2cc(OC)c(OC)cc12
 : -2, -6, -5.2, 0.5, 1, 0.5%
> CCCC(=O)N1CCC1(C)C(=O)Nc1ccc(C)c(C)c1 (configuration not stated)
 : 2, -9, -4.1, 4.0, 1, -0.7%
> COc1cc(/C=N/Nc2ccc(C(F)(F)F)cn2)cc(OC)c1O
 : -8, 8, 14, 2.2, -4, -1.1%
> Cc1ccc(OCC(=O)NNC(=O)CSC(=S)N2CCCC2)cc1
 : -1, -1, -2.2, -1.0, -8, 2.7%
> CCOC(=O)CSc1nc2ccc(NC(=O)CSc3nnnn3Cc3ccccc3)cc2s1
 : -1, 6, -0.5, 0.0, 10, 15%
> O=C(CCCN1C(=O)c2cccc3cccc(c23)C1=O)N1CCN(c2ccccc2)CC1
 : -3, -29, -0.7, 3.6, -18, ?
> Cc1ccc(/C=C/C(=O)NC(=S)N2CCN(C)CC2)cc1
 : 0, -16, -0.7, -0.5, 0, -0.8%
> Cc1ccccc1NC(=O)C1Cc2ccccc2CN1C(=O)c1ccco1 (configuration not stated)
 : -9, -4, 0.6, 0.5, 2, -0.3%
> Cc1cc(NC(=O)CN2C(=O)NC(CC(C)C)C2=O)ccc1Br (configuration not stated)
 : 11, -8, -3.1, 0.1, ·, 8.8%
> Cc1c(Cl)cccc1NC(=O)Cn1c(CCC(=O)O)ccc1-c1ccc(Cl)cc1
 : ?, -9, 5.9, -0.7, -6, -1.9%
> CC(=O)NS(=O)(=O)c1ccc(NS(=O)(=O)c2ccc(F)cc2)cc1
 : 5, -8, -1.7, 0.6, 0, 0.2%
> CCOc1ccccc1-n1c(SCC(=O)N2CCCc3ccccc32)nnc1-c1cccnc1
 : -3, 3, -0.5, 0.7, 14, -0.4%
> Cc1cccc(NC(=S)NNC(=O)CCn2nc(C)c([N+](=O)[O-])c2C)c1
 : 2, -26, -8.6, -0.5, -1, -6.8%[38.3 µM]
> CCOC(=O)c1cccc(Nc2ncnc3ccccc23)c1
 : -6, -7, 1.4, 0.4, -7, -0.9%
> Cc1noc(NS(=O)(=O)c2ccc(N/C=C\C(=O)c3cccc4ccccc34)cc2)c1C
 : ?, -6, -7.3, 0.6, ·, -0.1%
> NC(=S)N/N=C/c1ncc(C(F)(F)F)cc1Cl
 : -85*, -12, -0.2, 2.6, -85*, 1.6%
> Cc1ccc(S(=O)(=O)NCCC(=O)Nc2nccs2)cc1
 : 0, -6, -8.6, -0.3, -26, -2.6%
> CC1(C)Cc2c(sc3c2C(=O)N(c2ccccc2)C2=NCCN23)CS1
 : -6, -22, -4.6, -0.1, -2, -0.7%
> O=c1[nH]c(-c2ccccn2)cc2ccccc12
 : -16, -13, -2.2, -0.5, ?, 10%
> Cc1ccc(NC(=S)NC(=O)C2CCCC2)cc1C
 : 0, -15, -4.8, -0.5, 3, 14%
> COC(=O)c1c(NC(=O)CN2CCN(c3ccccc3OC)CC2)c2cc(C)ccc2n1C
 : 10, -27, -0.7, 0.5, -1, -2.1%
> COc1ccccc1Oc1ccc(NC(=O)Cc2ccccc2)cc1
 : 4, -27, -7.0, -1.1, ·, -0.5%
> Cc1ccc(CN2CCN(Cc3c(C)nn(-c4ccc(F)cc4)c3C)CC2CCO)o1 (configuration not stated)
 : -4, -23, -1.6, -0.3, 4, 0.6%
> CC(=O)N1CCc2cc(S(=O)(=O)Nc3cccc(C(F)(F)F)c3)ccc21
 : 2, -8, -0.9, -1.0, 7, 4.2%
> Cc1cc(S(=O)(=O)NC2CC(C)(C)NC(C)(C)C2)c(Cl)cc1Cl
 : 9, -4, -0.8, 0.4, 10, -0.1%
> COc1ccc(S(=O)(=O)N2CCOCC2)cc1C(=O)N1CCCCC1
 : -1, -27, -7.2, -0.1, 5, -0.8%
> CN(C)c1cccc(C(=O)OC(C(=O)Nc2ccc(Cl)cc2C(F)(F)F)c2ccccc2)c1 (configuration not stated)
 : -3, -6, -0.9, 0.0, 6, 14%
> Cc1ccc(/C(O)=C2\C(=O)C(=O)N(Cc3cccnc3)C2c2ccccc2[N+](=O)[O-])cc1 (configuration not stated)
 : -17, -18, -6.1, -0.4, -1, -0.5%
> CC(Oc1ccc2c3c(c(=O)oc2c1)CCC3)C(=O)NCC1CCC(C(=O)O)CC1 (configuration not stated)
 : 1, 11, 7.1, ·, 7, 0.9%
> CC(=O)c1ccc(S(=O)(=O)N2CCN(c3nc(-c4cccnc4)nc4ccccc34)CC2)cc1
 : -6, 4, -1.5, 0.2, -8, 2.6%
> O=C(CSc1nnc(N2CCCC2)n1-c1cccc(Cl)c1)N1CCN(c2ccccn2)CC1
 : 4, -8, -3.7, -0.8, -3, -0.9%
> O=C1C(Cc2ccccc2)SC(=Nc2ccccc2)N1c1ccccc1 (configuration not stated)
 : 1, -3, -2.0, 2.3, 5, -2.2%
> CCOc1ccc(NS(=O)(=O)c2cc(NC(=O)C3CC3)ccc2C)cc1Br
 : -6, -5, 0.0, 3.5, 2, 21%
> O=C(CN(CC1CCCO1)C(=O)CNS(=O)(=O)c1ccc(Cl)cc1)NC1CCCC1 (configuration not stated)
 : -3, -6, 3.5, -0.6, 10, 0.6%
> COc1cc(C)c(Cl)cc1S(=O)(=O)NCCN1CCOCC1
 : -1, -20, -3.3, 2.2, 10, 5.6%[38.3 µM]
> COc1ccc(CN2CCNC(=O)C2CC(=O)N(C)Cc2ccccn2)cc1OC (configuration not stated)
 : -1, -5, -3.1, 0.6, -19, -1.9%
> COc1cc2c(cc1OC)CN(C(=O)CN1C(=O)NC3(CCCCC3C)C1=O)CC2 (configuration not stated)
 : -2, -14, -1.3, -0.6, 8, 1.9%
> CCOc1ccc(NC(=O)CN(C)C(=O)c2c(C)nn(-c3ccc(F)cc3)c2Cl)cc1OCC
 : -7, -22, -2.8, 0.2, -5, 3.1%
> COc1ccc(OC)c(CCNC(=O)CCC(=O)N2CCOc3ccc(C)cc32)c1
 : -3, -7, -1.0, 0.7, -9, 1.2%
> Cc1cc(C)cc(C(=O)NN2CCOCC2)c1
 : 8, -1, -4.4, -0.1, 4, -0.9%
> O=C(Nc1ccccc1F)c1csc([C@@H]2C[C@H](O)[C@@H](CO)O2)n1
 : 0, -2, -5.1, -0.6, 4, 0.4%
> CCCSc1nc2sc3c(c2c(=O)n1-c1ccc(OC)cc1)CCN(C)C3
 : -14, -10, -3.8, 1.1, -20, -0.7%
> COC(=O)c1ccc(CSc2nnc(-c3ccc4c(c3)OCO4)n2-c2ccccc2)o1
 : 7, 8, 1.0, 2.3, 16, 2.3%
> O=C1N(c2ccccc2)C[C@@H]2C[C@@H](c3cccs3)N3CCC[C@@]123
 : 0, -12, -1.9, -0.2, 2, 3.3%
> O=C(CN1CCC(c2nc3ccccc3s2)CC1)N1CCCCC1
 : 3, -9, -4.9, 0.6, ·, 1.7%
> COc1ccc(C(CNC(=O)CSc2ccccc2)N2CCOCC2)cc1 (configuration not stated)
 : -5, -14, -1.3, -1.1, -2, 2.5%
> Cc1nc(CN(C)Cc2nc(Cc3cccc(F)c3)no2)cs1
 : 3, 1, -0.4, 0.2, -17, 2.9%
> O=C(CSC(=S)N1CCCC1)NCC(=O)Nc1ccccc1Br
 : 0, -7, 0.1, -0.9, 6, -1.3%
> CCCCCN1C/C=C\C(c2ccc(OC)cc2)N(Cc2ccc(F)cc2)C(=O)C1 (configuration not stated)
 : 6, -12, 1.8, 2.7&0.3, 16, 4.0%
> CCCC1(C)NC(=O)c2ccccc2O1 (configuration not stated)
 : -2, -3, -4.4, 1.2, 3, -1.7%

Shown field by field: entries from further up.
O=C(CSC(=S)N1CCCC1)NCC(=O)Nc1ccccc1Br
  Six1-Eya2 inh = 0; D2 PAM = -7; D2 ag = 0.1; TRPML1 agonist = -0.9; CtBP-E1A blk = 6; PINK1 expr mod = -1.3%

Cc1ccc(CN2CCN(Cc3c(C)nn(-c4ccc(F)cc4)c3C)CC2CCO)o1 (configuration not stated)
  Six1-Eya2 inh = -4; D2 PAM = -23; D2 ag = -1.6; TRPML1 agonist = -0.3; CtBP-E1A blk = 4; PINK1 expr mod = 0.6%

CC(Oc1ccc2c3c(c(=O)oc2c1)CCC3)C(=O)NCC1CCC(C(=O)O)CC1 (configuration not stated)
  Six1-Eya2 inh = 1; D2 PAM = 11; D2 ag = 7.1; TRPML1 agonist = ·; CtBP-E1A blk = 7; PINK1 expr mod = 0.9%

Following part:
Value order: Six1-Eya2 inh, D2 PAM, D2 ag, TRPML1 agonist, CtBP-E1A blk, PINK1 expr mod
> CCCCC(NC(C)=O)c1nc2ccccc2[nH]1 (configuration not stated)
 : -2, -10, -5.5, 0.0, 6, -1.1%
> C[C@H](NC(=O)[C@@H]1CCCN1C(=O)[C@@H]1CCCN1C(=O)c1cccc(Cl)c1)c1ccccc1
 : 1, ·, ·, -0.7, 6, -0.5%
> Cc1cc(C)n2nc(CC(=O)NNC(=O)COc3ccccc3)nc2n1
 : 0, 0, 0.0, -0.4, -1, 3.0%
> CCCOC(=O)Nc1cccc(C(C)=O)c1
 : 9, -7, 0.3, 0.2, 0, 0.3%
> CN(C)CCCn1c(=S)[nH]c2ccccc2c1=O
 : -4, -10, -2.0, -0.9, -6, 0.1%

Screening results (PubChem)
